Calb biofilm kill – mixtures killing C. albicans biofilm | inhibition, % at 7.6 µM | 0.02% of 120,000 active | C. albicans biofilm persisters + clotrimazole, fluorescence viability; primary screen in compound mixtures of four per well;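 active = inhibition above 30.3% in the primary screen of four-compound pools, then above 30% when the compound was retested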;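 note: compounds exposed to preformed 24 h biofilms for 48 h; the number belongs to the whole pool; some results filed as inactive read as strong as hits; inactives centre near 12; 0% = biofilm with clotrimazole alone and 100% = kill control; retested singly at about 60 µM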
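Test system: C. albicans CAF4-2 wild-type biofilms; buffer or medium: RPMI/MOPS medium, pH 7.0; schedule: 24 h biofilm formation, then 48 h compound exposure, 37 °C; detection: Alamar Blue fluorescence; measure: percent inhibition of biofilm viability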
* hit, by the source's call.

SMILES | Calb biofilm kill
CCN(CC)C(=O)Cn1cc(C(=O)C(=O)N2CCCc3ccccc32)c2ccccc21 | 15.6
Cc1ccc(C)c(NC(=S)NCc2cccs2)c1 | 11.0
CC(=O)NNC(=O)CCn1nnc2ccccc21 | 10.9
O=C(NN=C1CCCCCCC1)c1ccc(F)cc1 | -6.8
Cc1ccc(-c2cccc(C3CC=CC4C3C(=O)N(Cc3ccccc3)C4c3cc(C)ccc3F)c2)cc1 (configuration not stated) | 23.9
CN(C)CC/C=C1\c2ccccc2COc2ccccc21 | 14.8
O=C(NCC(=O)N(c1ccc(F)cc1)C(C(=O)NC1CCCC1)c1cccnc1)c1cccs1 (configuration not stated) | 17.5
CN(C(=O)COc1ccccc1)c1nnc(C23CC4CC(CC(C4)C2)C3)s1 | -6.4
Cc1ccc(-c2cn(S(=O)(=O)c3cccc([N+](=O)[O-])c3)nc2N)cc1 | 12.2
O=C(N/N=C/c1ccncc1)c1cnccn1 | 17.7
Cc1nnc(SCC(=O)O)s1 | 23.9
CC1CCCN(CC(=O)N2c3ccccc3Sc3ccccc32)C1 (configuration not stated) | 12.8
COc1ccc(Nc2nc(-c3c[nH]c4ccccc34)cs2)cc1 | 4.5
C/C(=N\NC(N)=O)C1CC(CC(C)C)C(=O)O1 (configuration not stated) | 5.7
COc1ccccc1CC(=O)N(CCC#N)CCC#N | 22.1
CC(=O)c1cc(F)c(N2CCN(C(=O)COc3ccccc3F)CC2)cc1C | 3.7
O=C(NC1CCCCC1)C1(c2ccccc2)CC1(Cl)Cl (configuration not stated) | 10.2
CCOC(=O)C1CCN(C(=O)/C=C/c2ccccc2)CC1 | 14.2
CCN1CCN(C(=O)c2ccc3c(c2)S(=O)(=O)c2ccccc2C3=O)CC1 | 10.6
CC(C)Nc1nc(Cl)nc(NCCOc2ccccc2)n1 | 13.7
O=C1c2ccccc2C(=O)N1CCSc1nc2ccccc2c(=O)n1CCCN1CCOCC1 | 13.3
COC(C[C@H](O)[C@@H](C)[C@H](O)COCc1ccccc1)OC | 15.8
C/C(=N\NC(=O)c1ccc2c(c1)OCO2)c1ccc2c(c1)OCO2 | 8.6
CC12CN3CCN(CC(C3)/C1=N\NC(=O)Nc1cccc(Cl)c1)C2 | 16.0
O=C(Cn1nc2ccccc2n1)N/N=C/c1ccc(F)cc1 | 19.6
Cc1cccc(NC(=S)NNC(=O)Cc2ccccc2)c1 | 18.6
COc1ccc(OC)c(CN2CCC(CNC(=O)Nc3cccc(Cl)c3)CC2)c1 | 24.0
Cc1ccccc1NC(=S)/C(=C(\[O-])c1cc(C)n(Cc2ccccc2Cl)c1C)[n+]1ccccc1 | 16.4
Cc1ccc(S(=O)(=O)N(C)c2ccc(OCC(=O)NC3=NCCS3)cc2)cc1 | 14.5
CC1CCCN(C2=C(Cl)C(=O)N(c3cccc(Cl)c3)C2=O)C1 (configuration not stated) | 12.0

Nothing new here: four of the compounds above.
SMILES | Calb biofilm kill
COc1ccc(OC)c(CN2CCC(CNC(=O)Nc3cccc(Cl)c3)CC2)c1 | 24.0
Cc1ccccc1NC(=S)/C(=C(\[O-])c1cc(C)n(Cc2ccccc2Cl)c1C)[n+]1ccccc1 | 16.4
Cc1ccc(S(=O)(=O)N(C)c2ccc(OCC(=O)NC3=NCCS3)cc2)cc1 | 14.5
CC1CCCN(C2=C(Cl)C(=O)N(c3cccc(Cl)c3)C2=O)C1 (configuration not stated) | 12.0

Continuation.
SMILES | Calb biofilm kill
O=C(NCc1ccc(Cl)cc1)c1cc(=O)[nH]c2ccc(S(=O)(=O)N3CCOCC3)cc12 | 24.4
COc1ccc(N(CC(=O)NCc2ccncc2)S(=O)(=O)c2ccc(C)c([N+](=O)[O-])c2)cc1 | 4.4
NC(=O)c1nn(-c2ccccc2)nc1NC(=O)CN1CCOCC1 | 18.2
CCOc1[nH]n(-c2ccc(Cl)cc2)c(=O)c1C=NCc1cccnc1 | 5.7
COCCNC(=S)N/N=C(\C)c1ccc(O)cc1 | 13.3
Cc1c(-c2ccccc2)nc(N)c(C#N)c1-c1cccnc1 | 16.0
CC(C)NC(=O)c1onc(CSc2ccccn2)c1C(=O)NC(C)C | 13.3
Cc1nc(C)c(N)c(=O)[nH]1 | 10.5
CCOc1ccc(S(=O)(=O)N2CCN(C(=S)NC3CC3)CC2)cc1 | 19.6
COc1ccc(-c2cccc([C@H]3[C@@H]4C=CCC[C@@]4(C)C(=O)N3Cc3ccccc3)c2)cc1 | 13.6
Cc1csc2ncc(C(=O)NCCC(c3ccccc3)c3ccccc3)c(=O)n12 | 21.9
Cc1cccc(OCCNC(=O)c2cncc(Br)c2)c1 | 9.7
Cc1nn(Cc2ccc(Cl)cc2)c(C)c1N | 20.1
CCc1cccc(CC)c1NC(=O)C1CN(S(=O)(=O)c2ccccc2)CCN1S(=O)(=O)c1ccccc1 (configuration not stated) | 17.0
O=C(CC1C(=O)NCCN1Cc1ccc(-c2ccccc2)cc1)NCCCn1ccnc1 (configuration not stated) | 27.9
O=C(CSc1nnc(COc2ccccc2F)n1-c1ccccc1)NC1CCS(=O)(=O)C1 (configuration not stated) | 7.4
COc1ccc(NC(=O)CC2C(=O)NCCN2C(=O)c2ccc(N(C)C)cc2)cc1 (configuration not stated) | 23.9
CC(O)/C=C/C1OC(=O)CC1Nc1ccc(C=O)cc1 (configuration not stated) | 20.6
O=C(Nc1ccc(Oc2nnc(-c3ccccc3)c3ccccc23)cc1)c1ccccc1 | 23.4
CN(C)CCCOC(=O)COc1ccc(C(C)(C)C)cc1 | 1.3
CN(C)CCN(Cc1cc2cc3c(cc2[nH]c1=O)OCO3)C(=S)NCc1ccco1 | 28.5
CC(C)C(NC(=O)c1ccc(C(C)(C)C)cc1)C(=O)Nc1cccc(S(N)(=O)=O)c1 (configuration not stated) | 12.7
COc1ccc(CCNC(=O)Nc2cccc([N+](=O)[O-])c2)cc1OC | 13.4
O=C(NC(=S)NCCOCc1ccc(Cl)cc1)c1cccnc1 | 9.2
FC(F)(F)c1nnc(-c2ccccc2)nc1N1CCCC1 | -2.4
O=C(Cn1cnc2scc(-c3ccc(Cl)cc3)c2c1=O)N1CCOCC1 | 19.9
CC(C)N(C(=O)CSc1nc2ccccc2c(=O)[nH]1)C(C)C | 19.0
CC1(C)C2CCC1(CS(=O)(=O)Nc1ccc(S(=O)(=O)N3CCCCC3)cc1)C(=O)C2 (configuration not stated) | 14.7
COc1ccc(CN(C)C(=S)Nc2ccc(OC(F)F)cc2)cc1 | 7.5
O=[N+]([O-])/C(C(=C(Cl)Cl)N1CCN(Cc2ccccc2)CC1)=C1\NCCN1Cc1ccc(Cl)nc1 | -1.8

Shown field by field: entries from further up
CC(C)N(C(=O)CSc1nc2ccccc2c(=O)[nH]1)C(C)C
  Calb biofilm kill: 19.0
CC1(C)C2CCC1(CS(=O)(=O)Nc1ccc(S(=O)(=O)N3CCCCC3)cc1)C(=O)C2 (configuration not stated)
  Calb biofilm kill: 14.7
COc1ccc(CN(C)C(=S)Nc2ccc(OC(F)F)cc2)cc1
  Calb biofilm kill: 7.5
O=[N+]([O-])/C(C(=C(Cl)Cl)N1CCN(Cc2ccccc2)CC1)=C1\NCCN1Cc1ccc(Cl)nc1
  Calb biofilm kill: -1.8

The results go on:
SMILES | Calb biofilm kill
O=C(N/N=C/C(Cl)=C/c1ccc([N+](=O)[O-])cc1)C(=O)Nc1ccc(C(=O)O)cc1 | 10.9
O=C(Nc1ccc(N2CCOCC2)cc1)c1cc2c(s1)CCCCC2 | -9.7
CC(NC(=O)/C(C#N)=C/c1cccs1)c1ccccc1 (configuration not stated) | 2.1
NC(=O)c1ccc(NC(=O)CCNC(=O)c2ccco2)cc1 | 10.8
COc1ccccc1NC(=O)C12CCC(C)(C(=O)C1)C2(C)C (configuration not stated) | 12.2
CC/C(=C/c1sc2ccc(C)cc2[n+]1CCO)SC | 26.3
COCCCNC(=O)C1CCN(c2ccc(N3CCOCC3)nn2)CC1 | 13.9
Cc1nc2c(c(=O)c3ccccc3n2C)c(=O)n1-c1ccccc1 | 14.3
CC1(C)CC(=O)C(C(=O)C2CCN(S(=O)(=O)c3ccccc3)CC2)C(=O)C1 | 8.1
CCCCC1(C)OC(=O)C(=Cc2ccc(-c3ccc(Cl)c(C(=O)O)c3)o2)C(=O)O1 (configuration not stated) | 1.2

Exported field by field: four of the compounds above.
> COc1ccc(CN(C)C(=S)Nc2ccc(OC(F)F)cc2)cc1
  Calb biofilm kill = 7.5
> O=[N+]([O-])/C(C(=C(Cl)Cl)N1CCN(Cc2ccccc2)CC1)=C1\NCCN1Cc1ccc(Cl)nc1
  Calb biofilm kill = -1.8
> O=C(N/N=C/C(Cl)=C/c1ccc([N+](=O)[O-])cc1)C(=O)Nc1ccc(C(=O)O)cc1
  Calb biofilm kill = 10.9
> O=C(Nc1ccc(N2CCOCC2)cc1)c1cc2c(s1)CCCCC2
  Calb biofilm kill = -9.7

(more compounds)
SMILES | Calb biofilm kill
c1ccc(N/N=C2\CCCc3ccccc32)nc1 | 12.7
CCOc1ccc(Nc2ccnc3cc(Cl)ccc23)cc1 | 12.8
Cn1ncc2c(Nc3ccc(Br)cc3)nc(Nc3ccc(Br)cc3)nc21 | -0.7
CCOc1ccc(OCC)c(S(=O)(=O)NCCCN2CCOCC2)c1 | 17.6
CCOCCCNC(=O)c1cc(Sc2ccc(C)cc2)nc2ccccc12 | 15.8
O=C(/C=C1\NC2(CCCC2)Cc2ccccc21)C(=O)N/N=C/c1ccccc1O | 12.9
CC(=O)N/C(=C\c1ccc(F)cc1)C(=O)OC(C)C | 5.9
COc1ccc(C/C(C)=N/NC(=S)Nc2ccc(C)c(C)c2)cc1 | 11.1
Fc1ccc(COc2cccc(-c3n[nH]c(=S)o3)c2)cc1 | 16.6
CCOC(=O)CN1N=C(/C=C/c2ccc(C(C)C)cc2)CCC1=O | 3.1
CCN(Cc1ccncc1)Cc1nc(CC2CC2)no1 | 8.4
Cc1cnc(SCc2cnc(C)nc2N)nc1 | 12.9
O=C(NN1C(=O)C2C3C=CC(C4CC34)C2C1=O)c1ccc(Br)cc1 (configuration not stated) | 16.8
CC(=O)c1ccc(NC(=O)Nc2ccncc2)cc1 | 15.3
CC(C)c1ccc(NC(=S)Nc2ccc3cn[nH]c3c2)cc1 | -0.6
N#C/C(=C(/O)COc1ccccc1)c1nnc2n1CCCCC2 | 9.1
C=CCOC(=O)/C(=C/c1cccc2ccccc12)NC(=O)c1ccccc1 | 0.9
Brc1ccccc1/C=N/Nc1ccccn1 | 1.0
CSc1nc(-c2ccco2)cc(C(F)(F)F)c1C#N | 7.4
CCOc1ccc(CN(C)C(=O)c2cccnc2SC)cc1OC | 13.9
O=C(Nc1ccccc1C(F)(F)F)N1CCCC1c1cccnc1 (configuration not stated) | 18.0
CC1=Nc2ccc(C)cc2/C1=C/c1c(N)n2c(S(=O)(=O)C(C)C)nsc2nc1=O | 17.8
Cc1cc(C(=O)COC(=O)CNC(=O)c2ccco2)c(C)n1Cc1ccco1 | 11.2
O=C(N/N=C/c1ccco1)C1CC1 | 10.7
CC(=O)c1c(O)c2ccccc2n(C)c1=O | 9.7
CC(=O)c1ccc(S(=O)(=O)Nc2cc3c(cc2C(C)=O)OCO3)cc1 | 3.0
Cc1[nH]nc(SCC(=O)Nc2ccc(C#N)cc2)c1[N+](=O)[O-] | 10.7
COC(=O)C1=C(C)N(Cc2ccccc2)C(=O)N[C@H]1c1cccs1 | 14.3
COc1ccc2nc(N3CCCCC3)c(/C=C3\SC(=S)NC3=O)cc2c1 | 30.4
CN1CCC(Oc2ccccc2Sc2ccc(C(F)(F)F)cc2)CC1 | 14.8
O=C(Nc1c2n(c(=S)n(-c3ccccc3)c1=O)CCCCC2)c1ccccc1 | 16.7
CCOc1ccc(N2C(=O)CN(CC(=O)OC)C2=S)cc1 | 8.1
NC(=O)N/N=C/C=C/c1ccc(F)cc1 | 6.6
COCCn1c(SCC(=O)N2CC(=O)Nc3ccccc32)nc2ccccc21 | 10.0
FC(F)(F)c1ccc(Sc2n[nH]c(C(F)(F)F)n2)nc1 | 22.0
CC(C)CC1(C)NC(=O)N(CC(=O)Nc2ccc3c(c2)CCC3)C1=O (configuration not stated) | 12.1
CCCOc1ccc(C(CC(=O)O)NC(=O)c2sc3ccccc3c2Cl)cc1 (configuration not stated) | 10.2
Nc1ccc2c(c1)OC1(CCCCC1)O2 | 10.7
C/C(=N/NC(=O)c1sc(NS(=O)(=O)c2ccccc2)nc1C)c1ccccc1 | 19.0

Screening data deposited in PubChem by PCMD.

Only part of the results is shown. The share of hits here may be higher or lower than overall.
